# Bioassay records as filed in PubChem.
# Arbovirus inh = antivirals against arbovirus infection; arbovirus infection cell-based antiviral screen; inhibition, % at 10 µM; AID 1251; 200,000 compounds, 0.37% hits;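 active = inhibition from about 30%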;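 note: bluetongue infection of BSR cells; cell survival read as ATP light after 72 h; 0% = infected wells without compound and 100% = uninfected wells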
# Mtb bLac sens = beta-lactam sensitization of Mtb H37Rv; M. tuberculosis H37Rv growth with meropenem, percent inhibition; hits of this screen are not shown here; inhibition, % at 25 µM; 330,000 compounds, 0.27% hits;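 active = about 74% or more and at least 40 points above the plate without the antibiotic, then above 30% in a dose series; inconclusive = first-round hits that could not be retested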;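 note: growth measured after seven days incubation then overnight dye step; 0% = bacteria only wells and 100% = bacteria with antibiotic; twin plates without the antibiotic show which effects depend on it; some results filed as inactive read as strong as hits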
# Mtb growth = M. tuberculosis H37Rv growth inhibitors, H37Rv strain (AID 1626) | M. tuberculosis H37Rv growth inhibition; higher % means a stronger effect | one-dose inhibition, % at 10 µM; IC50 in µM for titrated hits | 220,000 compounds, 0.95% hits;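 active = confirmed in a dose series; inconclusive = inhibition above 80% but not taken into the dose series; inactive = below 80% or under 30% at every dose of the series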;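 note: bacteria incubated seven days before Alamar blue readout; 0% = bacteria only wells and 100% = bacteria with antibiotic wells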
# RecA intein inh = Mtb RecA intein splicing inhibition; inhibition, %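 (about 9 µM by stock and volumes)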; 290,000 compounds, 0.75% hits; AID 2221; cell-free RecA intein splicing, fluorescence; in the data active = inhibition above about 30%; inconclusive = no clear call, values can overlap the other calls;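 note: 0% = vehicle wells and 100% = reference inhibitor control wells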
# Target sequence (P9WHJ3 whole entry, looked up): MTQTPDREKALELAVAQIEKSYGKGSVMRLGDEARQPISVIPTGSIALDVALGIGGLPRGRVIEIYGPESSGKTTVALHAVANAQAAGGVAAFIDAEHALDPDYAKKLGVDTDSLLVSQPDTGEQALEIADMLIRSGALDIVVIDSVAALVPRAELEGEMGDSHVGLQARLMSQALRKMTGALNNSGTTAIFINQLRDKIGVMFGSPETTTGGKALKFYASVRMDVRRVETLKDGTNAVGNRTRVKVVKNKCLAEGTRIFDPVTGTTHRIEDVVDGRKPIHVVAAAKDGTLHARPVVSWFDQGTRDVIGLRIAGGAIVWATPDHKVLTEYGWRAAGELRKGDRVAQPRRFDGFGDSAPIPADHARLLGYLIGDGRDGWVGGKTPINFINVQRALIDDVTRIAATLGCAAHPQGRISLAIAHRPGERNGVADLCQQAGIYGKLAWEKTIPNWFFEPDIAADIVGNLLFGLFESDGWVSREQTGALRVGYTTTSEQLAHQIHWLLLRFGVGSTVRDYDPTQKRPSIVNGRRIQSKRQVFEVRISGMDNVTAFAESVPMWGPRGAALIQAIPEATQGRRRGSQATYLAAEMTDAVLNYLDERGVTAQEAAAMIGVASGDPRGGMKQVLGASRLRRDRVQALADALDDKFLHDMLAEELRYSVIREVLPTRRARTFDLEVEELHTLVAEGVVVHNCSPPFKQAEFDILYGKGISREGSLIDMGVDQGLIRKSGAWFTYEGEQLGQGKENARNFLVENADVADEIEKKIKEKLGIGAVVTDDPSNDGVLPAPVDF
# YopH inh = YopH (Yersinia) phosphatase inhibition; inhibition, %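 (about 10 µM by stock and volumes)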; 140,000 compounds, 0.16% hits; fluorescence Ex485/Em525;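 active = inhibition of 50% or more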;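 note: controls were vehicle for no effect and minimum signal wells for full effect; inactives centre near -20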
# Arbovirus inh repeat = second read-out of Arbovirus inh, no call of its own (marks repeat the call); inhibition, %; measured here: 10K subset replicate screen; many hits read low in the repeat;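 first of two repeat runs on a subset; 0% = infected and 100% = uninfected wells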
# * marks the source's active call; other numbers are inactive results; u = inconclusive; x = not tested or not shown. The list is partial; count on the stated rates, not on these rows.
SMILES,Arbovirus inh,Mtb bLac sens,Mtb growth,RecA intein inh,YopH inh,others
CC(O)(CS(=O)(=O)Cc1ccccc1)C(=O)Nc1ccc(C(F)(F)F)cc1 (stereo not given),5,-7,-5%,6.2,-17,
O=C(CN1CCCCC1)Nc1cccc(-n2cnnn2)c1,1,-6,-2%,-1.5,-15,
CC(=O)C1=C(O)C(=O)N(CCCN2CCOCC2)C1c1ccccc1[N+](=O)[O-] (stereo not given),x,-7,1%,23,x,
COc1ccc(CNCC(=O)Nc2cccc(S(N)(=O)=O)c2)cc1,3,2,5%,-0.3,x,
OCC#Cc1cnc2ccccc2c1,-5,4,-2%,0.7,-29,
CC(=O)N/N=C(\C)CC(=O)Nc1ccc2c(c1)OCCO2,2,7,-6%,-3.3,x,
Fc1ccccc1COc1cccc(/C=N/n2cnnc2)c1,-1,11,0%,0.2,-3,Arbovirus inh repeat=5
CCCc1cc(-c2n[nH]c(=S)n2C(C)c2ccccc2)cs1 (stereo not given),5,-3,5%,7.4,2,
Cc1c(C)n2c(SCC(=O)NCc3ccc4c(c3)OCO4)nnc2[nH]c1=O,x,-12,x,-2.6,x,
Cc1cccc(Nc2nc(N)c([N+](=O)[O-])c(NCc3ccco3)n2)c1,-18,67,23%,8.5,-8,
N#C/C(=N\Nc1ccccc1F)c1nc(-c2ccccc2)cs1,-7,7,2%,-4.6,x,
CCOc1ccccc1-n1c(SCC(N)=O)nnc1-c1ccc(O)cc1,6,-2,-3%,-0.5,-9,
Cc1cc(C(=O)NCc2cc(C(=O)O)co2)co1,4,1,-4%,1.1,x,
COCCn1c(SCc2cc(=O)n3ccsc3n2)nnc1-c1ccncc1,8,1,-7%,0.8,x,
CCC(C)Nc1nc(C)nc2c1oc1ccccc12 (stereo not given),x,0,14%,x,x,
CN(C)S(=O)(=O)c1cccc(NC(=O)COc2ccc(C(=O)c3ccccc3)cc2)c1,x,50,x,1.0,x,
Cc1cccc(-n2c(O)c(C=Nc3ccc(Br)cn3)c(=O)[nH]c2=O)c1,5,-11,-8%,-0.6,x,
CNC(=S)N/N=C/c1ccc(OCc2ccccc2)c(Br)c1,6,3,0%,-0.8,-28,
CCCCOc1ccc(C(=O)Nc2ccc(N3CCN(C)CC3)cc2)cc1,-19,-5,16%,4.9,-100,
CCN(CC)S(=O)(=O)c1ccc2c(c1)nc(CCC(=O)OCC(=O)Nc1cc(OC)cc(OC)c1)n2C,-4,3,1%,3.0,-18,

# Structural class: those above with bromine
SMILES,Arbovirus inh,Mtb bLac sens,Mtb growth,RecA intein inh,YopH inh,others
Cc1cccc(-n2c(O)c(C=Nc3ccc(Br)cn3)c(=O)[nH]c2=O)c1,5,-11,-8%,-0.6,x,
CNC(=S)N/N=C/c1ccc(OCc2ccccc2)c(Br)c1,6,3,0%,-0.8,-28,

# (listing goes on)
SMILES,Arbovirus inh,Mtb bLac sens,Mtb growth,RecA intein inh,YopH inh,others
Cc1noc(C)c1CSCC(=O)N(C)CC(=O)Nc1ccc(F)cc1,x,-13,x,-4.4,x,
CCc1nn2c(N(C)CCO)cc(C)nc2c1-c1ccc(F)cc1,1,10,-4%,-2.9,x,
CC(=O)Nc1ccc(S(=O)(=O)NCCC(=O)NCCc2ccc(F)cc2)cc1,-1,-8,-4%,1.1,-37,
COc1ccc(Nc2nc(NCc3ccco3)nc(N/N=C/c3ccc(O)cc3)n2)cc1,-2,8,16%,4.8,-18,
Cc1ccc(-c2nnc(Nc3ccc4c(c3)OCO4)c3ccccc23)cc1S(=O)(=O)NC(C)C,-22,-5,8%,-5.8,-32,
Cn1c(Oc2ccccc2)c(C=O)c2ccccc21,2,3,14%,26,-40,
O=C(/C=C/c1cccc([N+](=O)[O-])c1)NCc1ccccc1,-12,5,5%,-0.3,x,
Cc1ccc(N(CC(=O)NC2CC3CCC2C3)S(C)(=O)=O)cc1C (stereo not given),-1,-2,-11%,-5.1,-30,Arbovirus inh repeat=6
CC[C@H](C)[C@H](NC(=O)c1ccc(Cl)cc1)C(=O)OCC(=O)c1ccc2c(c1)NC(=O)CO2,3,-6,-2%,2.5,-30,
CCOC(=O)c1ccc(NC(=O)c2sc3nc4n(c(=O)c3c2C)CCC4)cc1,x,4,x,-1.7,x,
COc1ccc(S(=O)(=O)Nc2ccc(F)cc2)c(C)c1C,10,-13,-2%,-1.1,-41,
CCOC(=O)c1cc(NC(=O)SCC(=O)O)c(C)nc1C,11,-16,74%,1.4,-27,Arbovirus inh repeat=4
CN(C(=O)COc1ccccc1)c1nnc(-c2cccnc2)s1,-2,-2,x,-1.7,-26,
C[C@@H](C(=O)N1CCN(Cc2ccc3c(c2)OCO3)CC1)n1nnc2ccccc2c1=O,x,0,x,-2.9,x,
Cc1ccc(NC(=S)N2CCN(Cc3ccc4c(c3)OCO4)CC2)c(C)c1,x,1,8%,-1.7,5,
Cn1c(CNC(=O)c2ccc3c(c2)OCO3)nnc1SCC(=O)Nc1ccc(F)cc1F,x,4,x,-0.3,x,
Cc1cc(C(=O)N2CCN(C/C=C/c3ccccc3)CC2)cs1,5,5,6%,1.3,-3,
N#CC1=C(N)Oc2cc(N)ccc2C1c1cccc(Br)c1 (stereo not given),x,0,x,-16,x,
Cc1ccc(-c2nn3c(C)nnc3s2)cc1NC(=O)c1ccc(-c2cccc(Cl)c2)o1,-26,x,4%,-2.0,-26,
CN(NS(=O)(=O)c1ccc(Cl)cc1)c1ncc(C(F)(F)F)cc1Cl,1,8,7%,0.9,x,
Cc1ccc(NC(=O)Cn2sc3nc(C)cc(C)c3c2=O)c(Cl)c1,x,-7,41%,-1.8,x,
CCOc1cccc(CN(CC)CC2CCCN(CCc3cccc(OC)c3)C2)c1O (stereo not given),x,-5,x,-3.3,x,
CCc1ccc2[nH]c3nc(SCc4nnc(-c5ccc(C)cc5)o4)nnc3c2c1,-15,3,-5%,-4.2,6,
O=C(NCCc1ccc(Cl)cc1)C1CCC(CNc2c(N3CCCCC3)c(=O)c2=O)CC1 (stereo not given),2,100,12µM*,-0.2,-9,
CCOC(=O)c1ccc(S(=O)(=O)Nc2nc3cc(S(=O)(=O)NC4=NCCCCC4)ccc3s2)cc1,-19,-4,1%,0.2,x,
O=C(Nc1cccc2[nH]ncc12)NS(=O)(=O)c1ccccc1,x,3,x,-9.9,x,
CC(C)N(CCO)Cc1nc(C(c2ccccc2)c2ccccc2)no1,x,0,x,2.4,x,
CCOC(=O)c1nc(C)sc1-c1ccnn1S(=O)(=O)c1ccc(Cl)cc1Cl,x,0,4%,1.0,x,
CCc1ccc(S(=O)(=O)Nc2ccc(O)c3ccccc23)cc1,x,10,x,92*,x,
Cc1ccc(CNC(=O)CCC(=O)c2cccs2)cc1,2,-21,2%,3.1,-10,
Cc1noc(C)c1C(=O)OCC(=O)NC(c1ccccc1)c1ccccc1,0,-2,-1%,2.1,-40,
O=C(/C=C/c1ccccc1)NC(=S)NNC(=O)Cc1cccs1,4,-2,6%,-1.5,-26,
Nc1nc(-c2ccc3c(c2)CCC(=O)N3)cs1,-2,1,3%,3.4,x,
CCc1c(C)nc(N)n2c(SCC(=O)NC3CCCCC3)nnc12,x,-7,x,2.8,x,
CCS(=O)(=O)N1Cc2ccccc2CC1C(=O)Nc1nnc(C2CC2)s1 (stereo not given),5,-5,0%,0.7,x,
COc1ccc(NC(=O)c2c(C)nn(Cc3ccccc3)c2C)cc1S(=O)(=O)N(C)C,x,-6,x,3.5,x,
CCOC(=O)C(=NCCCN(C)C)NNc1cc(C(F)(F)F)ccc1Cl,-34,73,-2%,-4.4,x,
CCCc1ccc(C(=O)N2CCN(c3ccccc3OCC)CC2)cc1,6,8,4%,8.8,-16,
COc1cccc(C2C(C(C)=O)=C(C)Nc3ncnn32)c1 (stereo not given),x,0,x,-1.4,x,
COc1ccc2c(c1)CCNC2Cc1ccc(OC)c(O)c1 (stereo not given),x,-17,-2%,-9.4,x,
O=C(c1cc2c(s1)-c1ccccc1OC2)N1CCc2ccccc2C1,-9,2,x,13,-12,
COC(=O)C1=COC(OC2OC(CO)C(O)C(O)C2O)C2C1C=CC2(O)CO (stereo not given),x,-1,-6%,x,x,
CCCCOc1ccc(-c2ncc(C(=O)OCC)c(N)n2)cc1,2,96,17%,3.0,4,
Cc1cccc(OCCSc2nc3ncnc(N)c3[nH]2)c1,0,3,2%,1.1,x,
COc1cccc(C2CC(c3c(-c4ccccc4)c4cc(Cl)ccc4[nH]c3=O)=NN2S(C)(=O)=O)c1OC (stereo not given),-41,99,65%,5.5,-21,
CCCCC(=O)Nc1ccc(C)c(O)c1,-9,-11,3%,-1.7,-24,
O=C(CSc1n[nH]c(-c2ccncc2)n1)Nc1ccc(Cl)c(C(=O)O)c1,x,6,x,-0.5,x,
COCCSc1ccccc1C(=O)N1CCN(c2ccccc2)CC1,-3,-5,2%,-0.7,x,
Cn1c(C(=O)O)ccc1S(=O)(=O)N(Cc1ccccc1)Cc1ccccc1,x,-5,-6%,11,x,
CCCCSc1nnc(-c2ccccc2)c2ccccc12,-10,13,9%,6.5,-43,
Cc1ccc(NC(=O)CCC(=O)NCCO)cc1,-6,-11,-4%,-3.5,3,
Cc1cc(NC(=O)COC(=O)CC2CCCC2)c([N+](=O)[O-])cc1C,x,-15,x,13,x,
O=C(O)C1C2C=CC(C2)C1C(=O)NCCC1=CCCCC1 (stereo not given),2,4,6%,1.4,1,
O=C(C1CCCO1)N1N=C(c2ccc(Br)cc2)CC1c1ccco1 (stereo not given),-8,3,63%,6.6,-12,
CCOc1ccc(N2C(=O)C3C(c4ccc(O)cc4)NC(CCSC)(C(=O)OC)C3C2=O)cc1 (stereo not given),6,-12,-11%,x,x,
CCN(CC)S(=O)(=O)c1cccc(NC(=O)COC(=O)c2ccc(Br)o2)c1,3,-2,-10%,x,-2,
COc1ccccc1N1CC(C(=O)Nc2cccc(C(=O)O)c2)CC1=O (stereo not given),6,2,-10%,-1.6,-12,
CCN(CC(=O)Nc1cccc(OC)c1)C(=O)c1ccco1,x,8,x,1.4,x,
Cc1nc([N+](=O)[O-])c(Sc2nc3ccccc3n2C)n1Cc1ccccc1,-29,53,20%,23,-8,
NS(=O)(=O)c1ccc(CCNC(=O)C2CCCCN2S(=O)(=O)c2ccccc2)cc1 (stereo not given),10,-2,-1%,-0.2,-35,

# 2 records drawn at random from those above, as already listed:
SMILES,Arbovirus inh,Mtb bLac sens,Mtb growth,RecA intein inh,YopH inh,others
CCCCOc1ccc(-c2ncc(C(=O)OCC)c(N)n2)cc1,2,96,17%,3.0,4,
CCN(CC(=O)Nc1cccc(OC)c1)C(=O)c1ccco1,x,8,x,1.4,x,

# Next section
SMILES,Arbovirus inh,Mtb bLac sens,Mtb growth,RecA intein inh,YopH inh,others
COc1ccc(S(=O)(=O)NCC2CCCN(Cc3ccc(C)o3)C2)cc1 (stereo not given),-9,-6,-3%,-8.6,x,
O=[N+]([O-])c1ccc(N2CCN(c3ccc(F)cc3)CC2)cc1,x,-2,x,-0.5,x,
Cc1nn(-c2ccc(F)cc2)c(Cl)c1/C=N/NC(=O)c1ccc(O)cc1,-8,62,6%,x,x,
O=C(NC(Cc1c[nH]c2ccccc12)C(=O)N/N=C/c1ccc(Br)cc1)c1cccs1 (stereo not given),-10,4,-3%,17,x,
COc1ccn(C)c(=O)c1C#N,1,-3,0%,-0.1,x,
CC1(c2ccccc2Cl)NC(=O)N(CC(=O)NCc2ccco2)C1=O (stereo not given),10,-2,-3%,-0.5,x,
CN(C)S(=O)(=O)N(CC(=O)Nc1ccccc1F)c1ccccc1,-2,u,4%,3.1,-65,
Cc1csc(Sc2nc3c(c(=O)[nH]c(=O)n3C)n2Cc2ccccc2Cl)n1,9,-4,5%,x,-38,
Cc1ccc(O)c(-c2cc(C(=O)Nc3c(C)n(C)n(-c4ccccc4)c3=O)[nH]n2)c1,8,-1,-2%,-3.5,-27,
C=CCN(c1ccccc1)S(=O)(=O)c1cccc(C(=O)Nc2ncccc2O)c1,x,-5,x,1.3,x,
COc1ccc(Nc2ccccc2N)cc1,-4,99,1.1µM*,4.3,x,
O=C(CCSc1nc(-c2ccco2)cc(C(F)(F)F)n1)N1CCN(c2ccccc2)CC1,1,67,14%,13,7,
COc1ccc(/C=N/NC(=O)c2ccc3nc[nH]c3c2)cc1OC,x,-11,-6%,-1.5,x,
Cc1occc1C(=O)N1CCCC(CO)(Cc2ccc(F)cc2F)C1 (stereo not given),x,-16,x,2.0,x,

# Part of the list above in order of molar mass, rising.
SMILES,Arbovirus inh,Mtb bLac sens,Mtb growth,RecA intein inh,YopH inh,others
COc1cccc(C2C(C(C)=O)=C(C)Nc3ncnn32)c1 (stereo not given),x,0,x,-1.4,x,
O=C(Nc1cccc2[nH]ncc12)NS(=O)(=O)c1ccccc1,x,3,x,-9.9,x,
CCCc1cc(-c2n[nH]c(=S)n2C(C)c2ccccc2)cs1 (stereo not given),5,-3,5%,7.4,2,
